Six1-Eya2 inh – blocks human Six1 binding to Eya2. 360,000 compounds, 0.56% hits. AlphaScreen GST-Six1/His-Eya2 binding, biochemical; hits give low values; control for the full effect not named in the record. activity change, % (test concentration not listed). Q15475+O00167; in the data active = activity change below about -65%; inconclusive = about -30% to -65%; inactive = above about -30%; further: on the % scale 0 is the no-effect control and ±100 the full control effect
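Compounds are tested against tagged Six1 and Eya2 proteins bridged by glutathione donor and nickel acceptor beads; after a one-hour incubation at 37 °C without light, AlphaScreen emission is recorded.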
CtBP-E1A blk – blocks the CtBP interaction with E1A | AID 651724 | activity change, % (test concentration not listed) | 340,000 compounds, 0.49% hits | AlphaScreen GST-E1A/His-CtBP binding, 1536-well; hits give low values; control for the full effect not named in the record; in the data active means activity change below about -65%; inconclusive means about -30% to -65%; inactive means above about -30%; further: on the % scale 0 is the no-effect control and ±100 the full control effect
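Protein mix (5X: 125 nM each GST-E1A, His-CtBP) was incubated with pinned compound 2 h at 37 deg C in dark, in 50 mM Tris pH 8.0 buffer with 300 mM NaCl. Glutathione donor and nickel acceptor beads followed; AlphaScreen signal read after 1 h.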
TRPML1 ag – human mucolipin-1 channel agonism | TRPML1-expressing cells, Ca2+ dye fluorescence, FDSS; host cell line not named in the record; reference of the full effect not given here | activation, % (no concentration beside the values) | AID 624414 | 410,000 compounds, 0.12% hits | Q9GZU1; in the data active = activation above about 50%; inconclusive = about 30% to 50%; inactive = below about 30%; further: 0% is about no effect; the text of the record puts the active cut at 80%
Target sequence (Q9GZU1 whole entry, looked up): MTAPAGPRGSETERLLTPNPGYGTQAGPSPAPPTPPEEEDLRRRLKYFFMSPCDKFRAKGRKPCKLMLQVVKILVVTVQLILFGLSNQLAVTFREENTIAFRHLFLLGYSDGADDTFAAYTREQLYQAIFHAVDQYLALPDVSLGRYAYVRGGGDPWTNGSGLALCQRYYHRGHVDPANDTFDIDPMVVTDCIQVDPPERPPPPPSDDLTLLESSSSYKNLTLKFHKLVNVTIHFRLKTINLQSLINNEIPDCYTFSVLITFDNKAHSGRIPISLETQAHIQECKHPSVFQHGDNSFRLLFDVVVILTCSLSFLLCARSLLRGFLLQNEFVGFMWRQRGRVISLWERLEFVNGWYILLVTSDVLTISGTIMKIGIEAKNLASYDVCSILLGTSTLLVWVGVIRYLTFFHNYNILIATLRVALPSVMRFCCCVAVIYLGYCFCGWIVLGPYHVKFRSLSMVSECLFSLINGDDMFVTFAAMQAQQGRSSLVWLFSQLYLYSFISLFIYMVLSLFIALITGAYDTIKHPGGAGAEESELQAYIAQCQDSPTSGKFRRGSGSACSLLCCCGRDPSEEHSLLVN
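Agonist activity was taken from a 110 s kinetic Ca2+ dye read on the FDSS after pinning compounds onto TRPML1-DL cells. The cells were seeded at 1,500/well with Tet inducer, incubated about 16 h, then dye-loaded at room temperature.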
D2 PAM – potentiates the human D2 dopamine receptor allosterically; P14416; DiscoveRx D2 beta-arrestin cells, luminescence, 90 min; 100% = 57 uM dopamine signal; potentiation, % (no concentration beside the values); 360,000 compounds, 0.23% hits; AID 624464; active = potentiation of 50% or more; inconclusive = 30% to 50%; inactive = 30% or less;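 further: compound concentration not given in the record; tested on top of an EC20 dose of dopamine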
Target sequence (P14416 whole entry, looked up): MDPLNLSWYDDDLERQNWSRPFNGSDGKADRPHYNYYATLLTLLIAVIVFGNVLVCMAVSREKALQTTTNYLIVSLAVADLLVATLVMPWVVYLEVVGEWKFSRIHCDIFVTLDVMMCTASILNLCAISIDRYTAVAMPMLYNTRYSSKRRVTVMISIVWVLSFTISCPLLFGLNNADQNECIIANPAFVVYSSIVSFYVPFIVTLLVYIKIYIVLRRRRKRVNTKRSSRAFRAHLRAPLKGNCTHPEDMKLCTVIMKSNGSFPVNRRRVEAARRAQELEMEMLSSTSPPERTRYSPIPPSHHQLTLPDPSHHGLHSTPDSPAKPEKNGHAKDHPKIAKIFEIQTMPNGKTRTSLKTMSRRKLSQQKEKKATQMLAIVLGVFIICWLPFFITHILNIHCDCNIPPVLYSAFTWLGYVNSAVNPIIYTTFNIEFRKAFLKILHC
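PathHunter beta-arrestin assay in DiscoveRx D2 cells. Compounds were added with an EC20 of dopamine (50 nM final) for 90 min at 37 deg C. Luminescence was read 1 h after detection reagent, with 57 uM dopamine as the EC100 control.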
TRPV1 PAM – enhances activation of the human vanilloid receptor TRPV1. Q8NER1. TRPV1-expressing cells, Fluo-8 calcium influx, capsaicin EC20 potentiation; host cell line not named in the record; control for the full effect not named in the record. potentiation, % at 8.33 µM. 320,000 compounds, 0.02% hits; active means potentiation above 80%; inconclusive means 30% to 80%; inactive means below 30%; further: 0% is about no effect
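TRPV1-expressing cells were cultured overnight at 35.5C and loaded with Fluo-8 calcium dye for 40 to 90 min at room temperature. After a 10 s baseline, compound was added and calcium influx was read kinetically for 3 min (ex 480/em 520 nm).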
TRPML1 inh – inhibitors of human TRPML1 channel; TRPML1-inducible cells, Ca2+ dye fluorescence, FDSS; hits give low values; inhibition of EC80 agonist-evoked calcium signal; activity change, negative = inhibition, % (test concentration not listed); AID 624415; Q9GZU1; 390,000 compounds, 0.02% hits; in the data active means activity change below about -50%; inconclusive means about -30% to -50%; inactive means above about -30%;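 further: stimulus is agonist 54-4 at its EC80 concentration; on the % scale 0 is the no-effect control and ±100 the full control effect; compound concentration not given in the record; the text of the record puts the active cut at -80%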
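Tet-induced TRPML1-DL cells loaded with Ca8 no-wash calcium dye were read kinetically on FDSS. Compound addition was followed by EC80 agonist 54-4 (4 uM final); inhibition was read over 110 s.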
* hit, by the source's call; ? = inconclusive; . = not tested or not shown.

SMILES	Six1-Eya2 inh	CtBP-E1A blk	TRPML1 ag	D2 PAM	TRPV1 PAM	TRPML1 inh
NS(=O)(=O)c1ccc(NC(=O)COC(=O)C23CC4CC(CC(C4)C2)C3)cc1	-7.9	9.9	0.0	5.3	11.4	4.7
CC12CCC(C(=O)NCc3ccc4c(c3)OCO4)(OC1=O)C2(C)C (configuration not stated)	8.1	-7.2	0.7	-14.9	0.3	-14.0
CNC(=O)CSc1nnnn1-c1ccc(C)cc1C	12.2	2.1	-0.8	-0.2	?	-2.1
CCCSc1nnc(N2C(=O)C(O)=C(C(=O)c3ccco3)C2c2ccccc2F)s1 (configuration not stated)	-24.3	.	0.0	-11.8	-22.3	-2.8
NC(=O)CC(NC(=O)OCc1ccccc1)C(=O)O (configuration not stated)	0.6	7.8	0.8	-31.1	-4.1	5.8
COCOc1ccc(-c2ncc(OC)nc2NC(=O)c2ccsc2)cc1	-1.7	0.0	-0.8	-1.1	.	.
CN(CC(=O)Nc1cccc(F)c1)C(=O)CSc1ccccc1F	-0.9	7.3	0.4	-4.1	12.0	8.3
O=C(COc1ccc(F)cc1)NNC(=O)c1cc2ccccc2oc1=O	-9.4	3.1	-0.7	2.5	7.3	-0.7
CCCn1c(/C=C/c2ccco2)nc2ccccc21	-10.4	-8.3	1.2	-13.6	-7.0	23.9
COc1cc(-c2cc(C(=O)Nc3nc4ccccc4s3)c3ccccc3n2)cc(OC)c1OC	-7.8	-12.2	-0.3	3.0	2.7	-18.2

Brought forward from above: 2 entries, followed by the next part.
SMILES	Six1-Eya2 inh	CtBP-E1A blk	TRPML1 ag	D2 PAM	TRPV1 PAM	TRPML1 inh
CCCn1c(/C=C/c2ccco2)nc2ccccc21	-10.4	-8.3	1.2	-13.6	-7.0	23.9
COc1cc(-c2cc(C(=O)Nc3nc4ccccc4s3)c3ccccc3n2)cc(OC)c1OC	-7.8	-12.2	-0.3	3.0	2.7	-18.2
C=CCOc1c(Br)cc(CNc2nccs2)cc1OC	-5.2	-13.8	0.5	-9.6	-23.5	4.1
Cc1cccc(Oc2ccc(S(=O)(=O)N3CCCCC3)cc2NC(=O)C2=COCCO2)c1	-9.4	.	0.5	-17.4	4.9	53.8
O=S(=O)(c1ccc(F)cc1)N1CCc2ccccc2C1	10.8	7.0	0.2	-4.5	-5.4	-4.3
COc1ccc(NC(=O)Nc2ccc(OCc3ccccc3)cc2)cn1	-16.1	0.5	.	-6.2	?	.
COc1ccccc1NC(=O)CSc1nc(=O)n(Cc2ccncc2)c2c1CCCC2	-1.1	4.4	1.6	7.0	4.3	27.1
CCNc1nc(NC(C)C)nc(NS(=O)(=O)c2ccc(C)cc2)n1	-3.7	.	.	-2.3	3.4	.
CC(CN1CCCCC1)OC(=O)c1ccc2c(c1)OCO2 (configuration not stated)	-3.6	13.3	-1.6	-35.3	24.7	32.8
CC(C)(C)OC(=O)N1CCC(NC(=O)c2nc[nH]c2C(=O)N2CCN(c3ccccc3)CC2)CC1	-7.9	-0.9	-1.1	-2.2	.	58.5
CC1(c2nnc(-c3ccc(F)cc3)o2)CC(c2c(Cl)cccc2Cl)=NO1 (configuration not stated)	4.3	8.0	2.1	-8.7	3.7	8.6
Cc1cc(C)c2c(=O)[nH]c(SCC(=O)N3CCOCC3)nc2n1	-5.3	2.9	1.8	-0.4	7.7	5.8

Five compounds already listed, sorted by the number in TRPML1 inh, low to high.
SMILES | TRPML1 inh
O=S(=O)(c1ccc(F)cc1)N1CCc2ccccc2C1 | -4.3
Cc1cc(C)c2c(=O)[nH]c(SCC(=O)N3CCOCC3)nc2n1 | 5.8
CC1(c2nnc(-c3ccc(F)cc3)o2)CC(c2c(Cl)cccc2Cl)=NO1 (configuration not stated) | 8.6
COc1ccccc1NC(=O)CSc1nc(=O)n(Cc2ccncc2)c2c1CCCC2 | 27.1
CC(CN1CCCCC1)OC(=O)c1ccc2c(c1)OCO2 (configuration not stated) | 32.8

(further entries)
SMILES	Six1-Eya2 inh	CtBP-E1A blk	TRPML1 ag	D2 PAM	TRPV1 PAM	TRPML1 inh
Cc1cccc(NS(=O)(=O)c2cccc(C(=O)N3CCCCCCC3)c2)c1	3.1	-3.3	1.4	1.0	17.3	-5.9
O=C(NCCCNC(=O)c1cc(Cl)ccc1Cl)c1cnccn1	-2.7	5.2	0.5	-1.5	-4.7	1.0
CC(C)(C)OC(=O)N1CCC(c2c(C(=O)O)cnn2-c2ccccc2Cl)CC1	1.1	3.3	0.6	-13.4	7.1	2.6
CCC(=O)Nc1nnc(SCC(=O)NCC2CCCO2)s1 (configuration not stated)	8.8	-2.4	-0.4	13.6	.	-1.6
COc1ccc(Cl)cc1S(=O)(=O)NC(C)C(=O)NCc1ccc2c(c1)OCO2 (configuration not stated)	14.5	-8.0	-0.9	-6.0	-0.2	13.6
O=C(COc1cccc2ccccc12)N1CCN(c2ccccc2)CC1	-20.0	-0.5	1.9	-30.7	13.7	10.2
CC(C)NC(=O)Nc1cccs1	0.8	10.3	1.3	0.5	-1.2	7.4
CCCc1cc(=O)[nH]c(SCC(=O)c2c(C)[nH]c3ccccc23)n1	-9.4	.	0.2	-9.5	13.9	-11.3
Cc1cccn2c(=O)c(/C=C(\C#N)C(=O)NCc3ccco3)c(N3CCCC(C)C3)nc12 (configuration not stated)	-17.1	9.5	4.8	-22.3	4.6	-11.2
CC(=O)N1CC2([N+](=O)[O-])CN(C(C)=O)CC([N+](=O)[O-])(C1)C2(C)C	4.1	-12.1	0.8	-7.8	29.5	20.1
C=CCn1c(SCC(=O)Nc2nccs2)nnc1-c1ccco1	0.5	-8.9	0.4	-0.1	8.5	-9.4
N#CC1=C(N)OC2=C(C(=O)CCC2)C1CCc1ccccc1 (configuration not stated)	1.4	4.1	-0.1	-18.4	-15.1	19.2
CCOC(=O)/C(C#N)=C/Nc1ccccc1NS(=O)(=O)c1ccc2c(c1)OCCO2	-4.8	.	-0.9	-1.8	-8.7	10.9
O=C(Cc1cccs1)Nc1ccc(Cl)c(S(=O)(=O)N2CCOCC2)c1	5.7	-7.1	1.8	2.1	-11.7	2.5
Cn1c(=O)n(CCc2ccccc2)c(=O)c2c1nc1n2CCCN1Cc1ccccc1	-9.2	-0.7	1.5	-6.6	-5.8	8.9
COc1ccc(/C=N/NC(=O)Cc2csc(Nc3cccc(C(F)(F)F)c3)n2)cc1C	-10.7	-6.1	2.2	2.9	-7.8	-8.1
Cc1ccc(C(C)(C)C)c(OCCCn2ccnc2)c1	-6.1	-0.1	-1.0	-7.0	-18.3	-21.8
O=C(CCN1CCCCC1)c1ccc2c(c1)OCCO2	-13.6	-10.6	6.0	-19.8	1.7	4.2
O=[N+]([O-])c1ccc(N2CCCCC2)c(-c2nn[nH]n2)c1	12.3	1.9	-0.3	-2.7	-0.7	13.9
Cc1cc(C(F)F)n2ncc(C(=O)NCc3ccccc3C(F)(F)F)c2n1	6.9	-1.7	2.6	-4.1	-16.6	13.7
COc1cccc(CC2(CO)CCCN(CC3=Cc4cc(OC)ccc4OC3)C2)c1 (configuration not stated)	-13.3	0.0	-0.4	-33.3	0.0	-2.6
C[C@@H]1CN(S(=O)(=O)C(C)(C)C)[C@H](CCO)/C1=C\c1ccccc1	-5.8	2.0	-0.6	.	.	22.6
O=C(CN1C(=O)COc2ccccc21)N1CCCC1	-4.5	9.7	0.3	-6.0	-5.9	-7.4
Cc1ccc(S(=O)(=O)N2CCN(Cc3cc(C(C)C)ccc3O)CC2)cc1	-9.3	-4.2	7.0	-2.9	12.5	-6.7
COc1ccc(CNC(=O)Cn2cc3c(n2)CCCCC3)cc1	-2.4	2.5	0.1	-1.5	-5.5	0.9
CCCN(CC(=O)Nc1cccc(S(N)(=O)=O)c1)CC(=O)Nc1ccc(F)c(F)c1F	12.0	7.0	0.4	-1.2	-8.6	-6.3
c1ccc2c(c1)nc1sccn12	4.6	0.9	0.3	-1.4	-1.7	-8.6
COC(=O)c1c(O)cc(=O)n2c1CCCCC2	-6.8	.	0.1	-4.2	4.3	9.1
COc1ccc(N=C2SCC(=O)N2c2ccc(OC)cc2)cc1	1.9	5.0	0.5	8.2	11.1	-7.7
CCC1=Nc2cc(C(=O)NCC3CCCO3)ccc2Sc2ccc(Cl)cc21 (configuration not stated)	9.2	-1.1	0.7	3.2	-19.7	3.8
CC(C)Oc1ccc(C(=O)NC(=S)Nc2ccc(CN3CCOCC3)cc2)cc1	-3.5	6.3	1.8	-14.3	-4.9	-2.8
CCOC(=O)C1CCCN(C(=O)c2cccc(S(=O)(=O)N(C)c3c(C)n(C)n(-c4ccccc4)c3=O)c2)C1 (configuration not stated)	14.0	-9.0	0.5	-24.7	-6.5	14.0
COc1ccc(CNC(=O)COC(=O)CCc2c[nH]c3ccccc23)cc1	5.6	-7.1	0.1	-4.1	4.1	-7.4
CCC(CC)=C(C#N)C(=O)NC1CCCCC1	-8.4	-3.7	-0.7	-13.2	-10.6	-7.0
CC1CCCCC12NC(=O)N(CC(=O)c1ccc[nH]1)C2=O (configuration not stated)	-3.7	0.0	0.0	-1.2	-2.6	3.3
CC[C@@H]1Cc2[nH][nH]c(=O)c2[C@@H](c2ccc(Cl)cc2)O1	-7.0	-12.9	-0.4	.	.	.
Cc1ccc(S(=O)(=O)N2CCOCC2)cc1NC(=O)c1ccc(F)cc1F	-0.8	3.1	2.2	1.1	.	8.7
CC(NC(=O)c1ccco1)C(=O)OCC(=O)N1CCCCCC1 (configuration not stated)	6.6	.	0.2	-2.5	6.1	10.1
CCOC(=O)C1=C(C)Nc2ncnn2C1c1cc(OC)ccc1OC (configuration not stated)	3.3	3.2	-0.1	-4.1	2.9	22.9
Cc1ccc(S(=O)(=O)N/N=C\c2cc3c(cc2Br)OCO3)cc1	-0.2	3.7	1.0	-45.1	13.5	23.1
O=C(O)c1ccc(-n2nncc2-c2ccccc2)cc1	-1.2	1.0	0.1	-1.3	-3.1	15.2
CCc1cc(=O)oc2cc(C)cc(OC(C)C(=O)NC(Cc3c[nH]c4ccc(O)cc34)C(=O)O)c12 (configuration not stated)	-3.6	-7.7	.	-16.7	29.4	.
COc1ccc(C(=O)Nc2c3c(nn2-c2ccc([N+](=O)[O-])cc2)CS(=O)(=O)C3)cc1	-3.4	2.0	-0.5	-3.6	2.7	19.4
CCn1c(SCC(=O)Nc2ccccc2Cl)nnc1C1CC1	-3.3	0.0	-0.4	-2.0	-1.3	3.8
Cc1nn(CC(=O)Nc2ccc(C(=O)N3CCCC3)cc2)c(=O)c2ccccc12	-3.6	-9.5	3.0	6.1	2.0	-1.9
Cc1ccc(C(=O)N2CCN(S(=O)(=O)c3sc(C(=O)O)c(C)c3C(=O)O)CC2)s1	4.7	15.2	0.4	-3.1	5.7	2.7
CSc1cccc(CN2CCC(CO)(Cc3cccc(C(F)(F)F)c3)CC2)c1	-7.9	-1.5	1.5	-21.2	-22.9	10.2
CCn1c(COc2ccccc2C)nnc1SCC(=O)CC(=O)Nc1ccccc1	-1.2	-0.2	-0.3	-6.5	-6.9	1.5
O=C(CNC(=O)c1cccc(F)c1)OCC(=O)N1CCCc2ccccc21	4.8	-8.6	0.9	-16.0	-5.1	-8.6

Compound activity from PubChem BioAssay.
